TRPV1 potentiator = enhances activation of the human vanilloid receptor TRPV1; TRPV1-expressing cells, Fluo-8 calcium influx, capsaicin EC20 potentiation; host cell line not named in the record; control for the full effect not named in the record; potentiation, % at 8.33 µM; hit rate 0.02% among 320,000; AID 540277; active means potentiation above 80%; inconclusive means 30% to 80%; inactive means below 30%; further: 0% is about no effect
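TRPV1-expressing cells were cultured overnight at 35.5C and loaded with Fluo-8 calcium dye for 40 to 90 min at room temperature. After a 10 s baseline, compound was added and calcium influx was read kinetically for 3 min (ex 480/em 520 nm).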
ClpP mod = qHTS Assay for Activators of ClpP; purified B. subtilis ClpP, FRET peptide cleavage, 20 min; Potency, µM (top dose mostly 57.5 µM), without a hit: top-dose activity change, negative = active; hit rate 1.9% among 340,000; ATP-dependent Clp protease proteolytic subunit (Bacillus subtilis (strain 168)), P80244; active = well fitted falling curve with a large enough effect; inconclusive = small, poorly fitted or top-dose-only effect; inactive = no such curve, though single readings can be large or run the other way; further: potency means the concentration at half of the fitted maximal effect; the source files actives as falling curves though it sought activators and does not explain the sign; nearly all actives have a fitted effect of over 65% in size; many hits overshoot -100%
Target sequence (P80244 whole entry, looked up): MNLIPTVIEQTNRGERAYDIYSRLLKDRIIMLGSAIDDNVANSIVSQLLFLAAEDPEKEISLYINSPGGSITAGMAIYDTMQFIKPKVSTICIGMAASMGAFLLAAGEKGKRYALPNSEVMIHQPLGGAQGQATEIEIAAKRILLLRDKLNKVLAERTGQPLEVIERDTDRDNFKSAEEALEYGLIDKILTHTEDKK
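Buffer: 100 mM Tris/HCl pH8, 100 mM KCl, 0.05% low protease BSA, 2.5% glycerol, 0.01% Tween-20. ClpP 10 microg/mL final; 20 min RT; delta FRET normalized to ADEP and DMSO controls.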
Menin MLL FP FL = menin-MLL binding inhibition, fluorescein peptide; Fluorescence polarization, fluorescein-MLL peptide displacement from menin; FP activity change, % at 61.4 µM; 290,000 tested, under 10 active; AID 1766; inconclusive = falling polarisation curve, or a change in total fluorescence; inactive = total fluorescence flat and polarisation flat or rising; no compound was filed as active; the % refers to the polarisation; negative = inhibition;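 further: % of control where 0% means no effect; inhibitors lower the polarisation; unlabelled MLL peptide was the positive control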
TRPML1 ag = activates the human TRPML1 channel; Q9GZU1; TRPML1-expressing cells, Ca2+ dye fluorescence, FDSS; host cell line not named in the record; reference of the full effect not given here; activation, % (concentration not given with the values); hit rate 0.12% among 410,000; in the data active = activation above about 50%; inconclusive = about 30% to 50%; inactive = below about 30%; further: 0% is about no effect; the text of the record puts the active cut at 80%
Target sequence (Q9GZU1 whole entry, looked up): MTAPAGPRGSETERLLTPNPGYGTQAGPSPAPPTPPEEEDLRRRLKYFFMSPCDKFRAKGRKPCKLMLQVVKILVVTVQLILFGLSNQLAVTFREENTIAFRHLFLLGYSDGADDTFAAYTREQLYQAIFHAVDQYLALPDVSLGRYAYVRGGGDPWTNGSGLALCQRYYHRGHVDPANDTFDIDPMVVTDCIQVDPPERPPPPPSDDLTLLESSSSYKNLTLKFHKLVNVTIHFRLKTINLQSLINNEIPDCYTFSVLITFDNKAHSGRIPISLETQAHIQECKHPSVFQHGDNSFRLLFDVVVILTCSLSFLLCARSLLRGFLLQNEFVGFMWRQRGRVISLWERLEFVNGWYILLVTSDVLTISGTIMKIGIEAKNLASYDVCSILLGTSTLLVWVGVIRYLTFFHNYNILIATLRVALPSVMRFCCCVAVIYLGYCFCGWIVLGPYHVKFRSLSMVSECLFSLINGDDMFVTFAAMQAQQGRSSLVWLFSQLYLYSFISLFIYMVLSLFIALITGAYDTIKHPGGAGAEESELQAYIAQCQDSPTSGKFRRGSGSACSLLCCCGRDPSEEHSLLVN
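Tetracycline-induced TRPML1-DL cells are seeded and incubated overnight before loading with a no-wash Ca2+ dye and quencher. Agonist activity is taken from the 110 s fluorescence read following compound pin-transfer on an FDSS, before EC80 54-4 challenge.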
TRPML1 blocker = human mucolipin-1 channel inhibition | Q9GZU1 | TRPML1-inducible cells, Ca2+ dye fluorescence, FDSS; stronger effect = lower value; inhibition of EC80 agonist-evoked calcium signal | activity change, negative = inhibition, % (test concentration not listed) | hit rate 0.02% among 390,000; in the data active means activity change below about -50%; inconclusive means about -30% to -50%; inactive means above about -30%;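 further: stimulus is agonist 54-4 at its EC80 concentration; on the % scale 0 is the no-effect control and ±100 the full control effect; compound concentration not given in the record; the text of the record puts the active cut at -80%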
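Calcium fluorescence in TRPML1-DL cells induced overnight with Tet: a 110 s read after compound pin addition, then a 110 s antagonist read after challenge with 54-4 at 4 uM final (EC80).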
Sfp PPTase inh = Sfp phosphopantetheinyl transferase inhibition | Potency, µM, for inactives: max response, negative = inhibition, usual class: inhibitors | Biochemical Sfp PPTase activity, qHTS | hit rate 3.5% among 310,000 | AID 1490 | Q9F4F7; active means well fitted inhibition curve with a large enough effect; inconclusive means small, poorly fitted or top-dose-only effect, or another doubt; inactive means no such curve, though single readings can be large or run the other way;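 further: the enzyme is Sfp with the accession as filed and its product quenches rhodamine fluorescence; potency means the concentration at half of the fitted maximal effect; 0% = enzyme reaction without inhibitor and -100% = no enzyme wells; top concentration of the series not given in the record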
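Compounds were incubated with enzyme (final 15 nM) for 15 min at room temperature before substrate addition started the reaction. Fluorescence at 525 nm excitation, 598 nm emission was recorded immediately and after 30 minutes.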
PINK1 modulator = modulators of PINK1 expression; PINK1 immunofluorescence, high-content cytometry, 24 h; Potency, µM (series often up to 76.6 µM), without a hit: top-dose activation (PINK1 increase), hits mostly activators; hit rate 0.2% among 410,000; AID 624263; active = well fitted activation curve with a large enough effect; inconclusive = small, poorly fitted or top-dose-only effect; inactive = flat fitted curve, though single readings scatter; cell line not stated here;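 further: potency means the concentration at half of the fitted maximal effect; % of control where 0% means no effect; nearly all actives have a fitted effect of over 65% in size; a mitochondrial uncoupler was the plate control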
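PINK1 protein level read as immunofluorescence by microplate cytometer in a fixed, stained stable cell line after 24 h exposure to five compound concentrations, with CCCP as control.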
Starred values were filed as active, the others as inactive; ? = inconclusive; . = no result given; & = joins results of further samples; [ ] = another dose, or the depositor's remark. Rows were taken by chance; 4.4% or so of the library scored in one or more.

Values in the order – TRPV1 potentiator | ClpP mod | Menin MLL FP FL | TRPML1 ag | TRPML1 blocker | Sfp PPTase inh | PINK1 modulator
> c1ccc(CNc2ncnc3ccc(-c4ccc5c(c4)OCO5)cc23)cc1
→ . | . | -1.4 | . | . | -10% | 0.5%
> COc1cc(C(=S)N2CCCCC2)ccc1OCC(=O)Nc1ccc(F)cc1
→ 9 | 1.0% | -1.3 | 1.9 | -15 | 7% | 0.1%
> COc1ccc(-c2cc(C(=O)N3CCCCC3)c3ccccc3n2)cc1
→ -14 | 0.0% | . | 0.4 | 25 | . | 0.9%
> Cc1cc(C(=O)N2CCOCC2)ccc1[N+](=O)[O-]
→ -3 | ? | 4.7 | 0.0 | -1 | 6% | 2.6%
> Cc1c(NC(=O)c2cccc(S(=O)(=O)N(C)c3ccccc3)c2)c(=O)n(-c2ccccc2)n1C
→ . | 0.8% | . | 0.7 | 2 | . | 0.5%
> CC(=O)N1CCN(C(=O)COC(=O)c2ccc(S(C)(=O)=O)cc2)CC1
→ . | . | . | -0.3 | -12 | . | 2.3%
> Cc1ccc(-c2cc(C(=O)N3CCN(C(=O)c4ccco4)CC3)[nH]n2)cc1C
→ 1 | -0.2% | 3.2 | -0.7 | 15 | 20% | -1.2%
> COC(=O)CNC(=O)COc1ccccc1
→ 0 | 0.5% | 0.8 | -0.6 | -1 | 7% | 0.8%
> CCOc1ccccc1CNC(=O)CCCN1C(=O)c2cccnc2Oc2ccc(Cl)cc21
→ . | -0.3% | . | 2.6 | 44 | . | 1.5%
> O=C1CN(C(=O)OCc2ccccc2)c2ccccc2N1
→ -2 | -0.3% | -1.8 | -1.2 | -11 | 17% | -1.5%
> CC(NC(=O)c1ccccc1Br)C1CC2CCC1C2 (centres undefined)
→ . | . | . | 2.2 | 14 | . | 1.5%
> CCCCCCCCCCSc1n[nH]c(N)n1
→ -3 | . | 0.6 | 0.4 | 15 | 16% | 8.4%
> Cc1cccc(N(CC(=O)NCc2ccco2)C(=O)CCC(=O)Nc2ccccn2)c1
→ 28 | -0.5% | 3.0 | -0.1 | 10 | 4% | -3.3%
> CCN(CC)C(=O)CSc1ccccc1N
→ 16 | -4.0% | 2.4 | -0.9 | 0 | -10% | -0.7%
> COc1cc(C2CC(=O)c3cnc(N4CCN(CCO)CC4)nc3C2)cc(OC)c1OC (centres undefined)
→ . | -4.5% | . | 4.6 | 3 | . | 16%
> Cc1cccc(CCNC(=O)CC2C(=O)NCCN2Cc2ccccc2C)n1 (centres undefined)
→ 5 | -5.3% | . | -1.0 | -3 | 1% | 1.8%
> CCOc1ccc(OCC(=O)Nc2ccc(S(=O)(=O)Nc3cc(C)nc(C)n3)cc2)cc1
→ 12 | -7.7% | 2.3 | -0.1 | 4 | 9% | -1.9%
> COc1cc2nc(NCCCN3CCN(C)CC3)n3nc(-c4ccccc4)nc3c2cc1OC
→ -9 | ? | -2.2 | -0.2 | 7 | 5% | -1.3%
> C/C=C/C(=O)OCc1csc(CC(=O)Nc2ccccc2C)n1
→ -13 | -1.1% | . | 0.6 | -4 | 12% | 0.0%
> O=C(c1cccc([N+](=O)[O-])c1)N1CCN(Cc2ccc3c(c2)OCO3)CC1
→ 0 | . | 4.6 | -0.5 | -2 | -13% | -0.5%
> Cc1noc(C)c1C(=O)NCCc1ccc(Cl)cc1
→ -2 | -0.7% | -0.6 | 1.1 | 1 | 16% | -1.8%[38.3 µM]
> COc1ccc(/C=C(\C#N)C(=O)OCC(=O)NCc2ccco2)cc1
→ 15 | -2.2% | . | -0.4 | 0 | -3% | -2.1%
> O=C(NCC(c1cccnc1)N1CCc2ccccc21)c1ccc(F)c(F)c1 (centres undefined)
→ . | 1.0% | . | 2.6 | 2 | . | 0.4%
> CCOC(=O)c1csc(NC(=O)c2ccc(C#N)cc2)n1
→ 5 | -3.3% | 3.1 | -0.1 | ? | 6% | -0.6%
> Cc1ccc(Oc2c(CO)c(-c3ccccc3)nn2C)cc1
→ -3 | . | -1.0 | -0.4 | -7 | 13% | 7.6%
> O=C(NCCC1=CCCCC1)C(=O)NCC1OCCCN1S(=O)(=O)c1ccc(F)cc1 (centres undefined)
→ 11 | . | 1.8 | 0.0 | 15 | 17% | -3.1%
> COc1ccccc1C(=O)Oc1c(Sc2ccccc2)c(C)nn1-c1ccccc1
→ . | -0.9% | . | 0.4 | 16 | . | 1.1%
> CCOC(=O)N1CCN(C(=O)c2cc3n(n2)C(C(F)(F)F)CC(c2ccc4c(c2)OCO4)N3)CC1 (centres undefined)
→ -3 | 1.1% | -6.3 | 1.8 | -15 | 0% | -0.3%
> COc1ccccc1NC1=C(C)C(=O)CC1
→ 8 | 1.4% | 1.1 | -0.1 | 8 | 19% | 9.1%
> Cc1c(C(=O)N2CCN(c3ccccc3F)CC2)sc2ncn(CC(=O)N3CCOCC3)c(=O)c12
→ -37 | 1.4% | -3.7 | 1.1 | 14 | 6% | -0.3%[38.3 µM]
> CCN(C[C@H]1N[C@@](CC)(C(=O)OC)[C@H]2C(=O)N(C)C(=O)[C@@H]12)C(=O)COc1ccccc1
→ . | 2.0% | . | 1.1 | 3 | . | -2.0%
> CN1CCN(C(=O)c2cc(-c3cccc(Cl)c3)on2)CC1
→ -21 | -2.1% | -1.7 | 0.2 | 45 | 16% | 2.8%
> O=[n+]1cc(-c2ccccc2)n([O-])c2c1CCCCC2
→ -8 | -2.8% | . | 0.3 | -6 | 8% | 0.8%
> COc1ccc(Cl)cc1NC(=O)Cn1cnc2c1c(=O)n(C)c(=O)n2C
→ . | -1.1% | . | -0.6 | 13 | . | -1.1%
> O=C(CCn1cccc1)NCc1ccc2c(c1)OCO2
→ 5 | -2.9% | 1.1 | -0.7 | -2 | 13% | -2.3%
> CCc1nnc(NS(=O)(=O)c2ccc(NC(=O)c3cccc([N+](=O)[O-])c3)cc2)s1
→ -3 | 0.2% | -2.3 | -1.2 | -4 | 12% | -0.7%
> CN(C)S(=O)(=O)c1ccc(N2CCCC2)c(C(=O)NNC(=O)COc2ccccc2F)c1
→ 8 | -11% | . | -0.8 | -12 | . | -1.0%
> CCn1c(C)cc(/C=C2/NC(=O)N(c3ccccc3)C2=O)c1C
→ 2 | -5.5% | -0.4 | 2.8 | -10 | -7% | 1.9%
> O=C(CN(Cc1ccc(Cl)cc1)C(=O)CNS(=O)(=O)c1ccc(F)cc1)NCC1CCCO1 (centres undefined)
→ 5 | . | . | 1.2 | 7 | 14% | 0.7%
> Cc1ccc(CCNC(=O)Cc2ccc(NC3=NC4CS(=O)(=O)CC4S3)cc2)cc1 (centres undefined)
→ 9 | -2.3% | -1.4 | 0.0 | 0 | 16% | -1.2%
> Cc1nn(-c2ccccc2)c2nc(-c3ccccc3)cc(C(=O)N3CCOCC3)c12
→ -7 | . | 0.8 | 1.9 | 36 | -4% | -0.4%
> CCOc1cc(CNCCSc2nnnn2-c2ccccc2)cc(Cl)c1OC
→ . | -5.5% | . | 0.6 | -9 | . | -0.6%
> CCC(=O)Oc1ccc2c(C)cc(=O)oc2c1C
→ -2 | 52% | 3.9 | 0.9 | 13 | 5% | -1.7%
> O=C(Nc1ccc2ccccc2c1)[C@@H]1C[C@H]1[C@@H](NP(=O)(c1ccccc1)c1ccccc1)c1ccccc1
→ 27 | -23% | 3.6&4.0 | 0.5 | -8 | 18%&4% | 2.8%
> CCOC(=O)c1cnn(-c2ccc(OC)cc2)c1C1CCN(C(=O)OC(C)(C)C)CC1
→ . | 0.8% | . | 0.5 | 0 | . | 1.2%
> c1ccc(C2=NNC(c3ccccn3)=NN2)nc1
→ 9 | 1.3% | -11 | -0.1 | 10 | 13µM* | -1.1%
> CCOC(=O)N/N=C/c1cn(Cc2ccccc2Cl)c2ccccc12
→ 8 | -3.3% | 0.6 | 5.8 | 31 | 13% | 3.5%
> Cc1cccc(C(=O)OCC(=O)N(C)CC(=O)Nc2ccc(Cl)c(C(F)(F)F)c2)c1
→ ? | 0.1% | . | 1.3 | 8 | . | 17%
> Cc1cc2c(c(=O)n1C)C(C(C)C)C(C#N)=C(N)O2 (centres undefined)
→ -14 | 1.0% | -3.7 | 5.4 | 1 | 14% | ?
> CCOC(=O)c1c(C)[nH]c(C(=O)C(C)Cl)c1C (centres undefined)
→ -13 | . | 0.8 | -0.6 | 8 | 12% | -2.4%
> Cc1oc(-c2ccccc2Cl)nc1CS(=O)CC(=O)NCc1ccccc1Cl (centres undefined)
→ 18 | -4.4%&-2.4% | . | -0.3&-1.1 | 16&-6 | -3% | 1.8%&-1.3%
> CC1(C)CC(=O)C2=C(C1)N(c1ccccc1)C(N)=C(C#N)C2c1ccccc1 (centres undefined)
→ -10 | -1.6% | 4.4 | 1.0 | 20 | 4% | 0.6%
> CCOc1ccc(/C=N/n2c(C)nnc2C)cc1OC
→ 16 | . | 0.8 | -0.4 | 5 | 13% | -1.0%
> CC(=O)c1cccc(NS(=O)(=O)c2c(C)n[nH]c2C)c1
→ 5 | -6.0% | 2.0 | -0.5 | 38 | 11% | 1.4%
> O=C(NNC(=O)C(c1ccccc1)c1ccccc1)c1ccccc1O
→ . | 4.0% | . | -0.7 | 3 | . | 1.9%
> CCCc1nn(CCc2ccccn2)c(N)c1CC
→ -8 | -0.4% | -1.2 | 0.0 | 0 | 8% | -1.7%
> CN1C(=O)C2(C(C#N)=C(N)N(c3ccc(Cl)cc3)C3=C2C(=O)CC(C)(C)C3)c2ccccc21 (centres undefined)
→ -1 | -1.9% | 1.4 | -0.2 | -1 | -4% | -1.2%
> CCOC(=O)N1C2CCC(C2)N1C(=O)OCC
→ . | -1.5% | . | 0.5 | -12 | . | 5.1%
> O=C(/C=C/Sc1ccc(C(F)(F)F)cn1)c1ccccc1
→ 17 | 0.2% | 3.5 | -0.3 | -5 | -13% | ?
> COc1cccc(COc2ncnc3sccc23)c1
→ -3 | 0.5% | -1.5 | 0.3 | 14 | 23% | 1.3%
> Cc1[nH]n(-c2ccccc2)c(=O)c1C(=O)c1ccccc1
→ 14 | . | 0.0 | 1.4 | -2 | 17% | 0.0%
